Bioassay records: PubChem, several laboratories
Sa ugtP lethal = growth inhibition of ugtP-null S. aureus, primary screen, RN4220 ugtP deletion, OD600; 16 h; some inactives read as strong as hits; growth inhibition, % (concentration not given with the values); 0.54% of 330,000 active; AID 1259309, 2017;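 active = z-score under -3 and OD600 up to 0.15 on both plates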;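 note: plate controls were untreated wells for no effect and antibiotic for full effect; wells of about 80 µL received 100 nL stock; the first replicate is given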
Sa RN4220 lethal = growth inhibition of S. aureus RN4220, primary screen, OD600; 16 h; inhibition, % (concentration not given with the values); 0.33% of 330,000 active; AID 1259311, 2017;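 active = z-score of -3 or lower and OD600 up to 0.18 on both plates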;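 note: plate controls were untreated cells for no effect and reference antibiotic for full effect; stock transfer was 100 nL into about 80 µL; one replicate is shown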
BJeLR lethal = MLPCN primary cell-based screen for lethality selective to Ras in HRASV12 cells; BJeLR (HRASV12) viability, CellTiter-Glo ATP luminescence, 48 h; reference of the scale not given here; inhibition, % (test concentration not listed); 0.17% of 300,000 active; AID 1554, 2009;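 active = replicate mean above 50%; inconclusive = above 50% but judged a plate artefact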;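 note: 50 nL library stock added to about 25 µL; numbers are from one replicate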
PrP UTR inh = inhibition of PrP 5' UTR reporter expression; cell-based PrP 5' UTR mRNA reporter, plate reader; inhibition, % (test concentration not listed); 0.35% of 340,000 active; AID 488862, 2010;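 active = every replicate at 50% or more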;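 note: 0 = median of the neutral control wells; tested in H4 reporter cells; numbers are from one replicate; inactives centre near -14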
Bead autofluor = counter-screen for toxin protease inhibitors: compound fluorescence; fluorescence intensity (concentration not given with the values); compound autofluorescence counterscreen, microsphere flow cytometry; stronger effect = higher value; AID 624483; 3.1% of 360,000 active;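 active = at least 3 SD above the mean of all compounds, about 16000 in these data; inconclusive = too few beads counted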;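 note: 100 nL of 1 mM stock went into each well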
Mtb hypoxia rep = PubChem AID 1159583 | M. tuberculosis hypoxia-regulated fluorescent reporter, fluorescence | fluorescence inhibition, % (concentration not given with the values) | 0.1% of 300,000 active;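 active = 35 to 45% if threefold the growth effect, above 45% if 1.5-fold the growth effect; inactive = the rest, general growth blockers included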;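 note: wells of about 50 µL received 100 nL stock; 0% = vehicle wells and 100% = reference inhibitor wells; whole bacteria with a GFP reporter of the hypoxia response; strong numbers were not always called active; many hits fall short of the cut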
Mtb hypoxia rep growth = second read-out of Mtb hypoxia rep, no call of its own (marks repeat the call); growth inhibition, %; measured here: M. tuberculosis growth (absorbance);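 0% = vehicle and 100% = reference antibiotic; read after six days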
Numbers without * were called inactive; u = inconclusive; x = not tested or not shown.

SMILES	Sa ugtP lethal	Sa RN4220 lethal	BJeLR lethal	PrP UTR inh	Bead autofluor	Mtb hypoxia rep	Mtb hypoxia rep growth
COc1ccc(C)cc1NC(=O)CNC(c1ccccc1)c1ccc(C)cc1 (stereo unspecified)	9	-7.5	46	11	3841	-1	5
CN1CCN(CCc2nc3cc(NC(=O)COc4ccccc4)ccc3n2C)CC1	6	3.4	11	-5	9293	3	7
CCCn1c(=O)c2c(nc3n2CCCN3Cc2ccccc2)n(C)c1=O	12	1.9	10	7	2935	-9	-8
O=C(NCc1ccccc1)C(Cc1ccccc1)N1C(=O)C2C3CCC(C3)C2C1=O (stereo unspecified)	-4	-4.7	-17	-26	16697*	4	6
O=C(C1CCC(=O)N(C2CC2)C1)N1CCC(Oc2cccc(F)c2)CC1 (stereo unspecified)	12	5.3	6	1	4817	5	-8
COc1ccc(-c2nnc(SCC(=O)Nc3ccc(C)cc3)n2C)cc1	10	-0.2	-4	-57	8101	8	1
COC(=O)CCCNC(=O)c1ccc(OS(=O)(=O)c2cc([N+](=O)[O-])ccc2C)cc1	-3	0.7	1	-7	x	-11	5
COc1ccc(C=NNC(=O)c2cccnc2)c2ccccc12	4	-0.6	x	x	x	-4	-6
CC(=O)N1CCN2C(=O)C1CCCC(=O)c1cc(C3CCCCC3)ccc12 (stereo unspecified)	3	2.5	2	-16	3685	5	1
COc1ccc(C(=O)C2CCCN(Cc3cc(Cl)ccc3O)C2)c(OC)c1 (stereo unspecified)	9	-1.0	-4	-4	3656	6	7
COCCNc1c(-c2ccc(OC)c(OC)c2)nc2ccc(Cl)cn12	4	11	-11	-2	2769	14	10
Cc1nonc1NC(=O)CSc1nc(C2CCCCC2)nc2ccccc12	-14	5.7	0	-33	9439	6	10
COc1cc(Cl)ccc1OCc1cc(C(=O)N(C)Cc2nnc(C)o2)no1	8	7.2	-1	-21	5627	-3	7
Cc1ccc(NS(=O)(=O)c2ccc(-c3ccc(=O)[nH]n3)o2)cc1Cl	20	-0.3	-10	-15	4424	0	-6
CC(=NNC(=O)c1cccc(S(=O)(=O)N2CCOCC2)c1)c1ccc(C#N)cc1	-3	2.9	x	x	x	7	1
CC1(C)CC(=O)C=C(Nc2ccc(C(=O)O)cc2)C1	4	1.5	-7	-22	3854	x	x
CCN(CC)c1ccc(C=C2NC(=O)NC2=O)cc1	-5	1.0	x	x	x	5	5
COCCNC(=S)N1CCC(NC(=O)Nc2ccc(C)cc2)CC1	2	3.1	-2	-26	4123	4	12
O=C(c1cccc([N+](=O)[O-])c1)N1CCCC(C(=O)N2CCN(c3ccccc3)CC2)C1 (stereo unspecified)	-3	6.0	-18	-18	4802	12	-13
CCc1nnc(NC(=O)C2CCCN2C(=O)Nc2ccc(Cl)cc2)s1 (stereo unspecified)	6	-3.4	-2	-26	3503	6	3

Brought forward from above: two entries; new compounds follow.
SMILES	Sa ugtP lethal	Sa RN4220 lethal	BJeLR lethal	PrP UTR inh	Bead autofluor	Mtb hypoxia rep	Mtb hypoxia rep growth
O=C(c1cccc([N+](=O)[O-])c1)N1CCCC(C(=O)N2CCN(c3ccccc3)CC2)C1 (stereo unspecified)	-3	6.0	-18	-18	4802	12	-13
CCc1nnc(NC(=O)C2CCCN2C(=O)Nc2ccc(Cl)cc2)s1 (stereo unspecified)	6	-3.4	-2	-26	3503	6	3
COc1cc(C(=O)NCCC2=CCCCC2)ccc1OCc1c(C)noc1C	6	-0.2	x	-32	3076	9	3
Cn1c(COc2ccc(Cl)cc2)nnc1SCC(=O)NC1CC1	3	4.6	x	-17	4037	34*	74*
O=C(OCC(=O)N1CCCc2ccccc21)c1ccc(F)c(S(=O)(=O)N2CCOCC2)c1	13	5.2	-2	-2	u	-17	0
O=C(NCCCCNC(=O)c1ccc(Cl)s1)c1ccc(Cl)s1	2	0.3	6	-24	3266	x	x
COc1ccccc1NS(=O)(=O)c1cc(NC(=O)c2ccc3c(c2)OCCO3)ccc1C	3	-3.3	-4	4	2448	-4	13
CSc1nnc2c(n1)OC(C)N(C(=O)c1ccccc1)c1ccccc1-2 (stereo unspecified)	2	4.3	-15	-12	6877	4	3
Cc1ccc(-c2ccc(C(=O)NCc3ccc(Cl)cc3)o2)c2ccccc12	x	x	-8	-19	4027	x	x
Cc1ccc(S(=O)(=O)C2C(=O)N(C)C3(C)CC2c2ccccc2O3)cc1C (stereo unspecified)	2	3.2	0	-2	2397	-3	5
Nc1nc(SCC(=O)c2ccc(Cl)cc2)c2ncn(C3OC(CO)C(O)C3O)c2n1 (stereo unspecified)	5	2.7	x	-12	3702	3	7
C[C@@H]1CN([C@@H](C)CO)C(=O)c2cccc(NC(=O)C3CCOCC3)c2O[C@H]1CN(C)S(=O)(=O)c1ccc(Cl)cc1	-7	-13	x	-17	3585	0	8
CN1/C(=C\C(=O)c2cccnc2)Sc2ccccc21	x	x	0	-99	4431	x	x
C[C@H](NC(=O)c1ccccc1Cl)C(=O)Nc1ccccc1F	x	x	-5	-24	5763	x	x
CC(=O)NC(NC(=S)N1CCCCCC1)C(Cl)(Cl)Cl (stereo unspecified)	-14	-4.6	-6	-20	2422	3	-7
Cc1[nH]c2ccccc2c1C=NNC(=O)c1cc(C(C)(C)C)[nH]n1	10	1.0	x	x	x	10	13
Cc1ccc(N=Cc2ccc(O)cc2O)cc1F	-6	2.5	x	-8	21566*	6	11
CCOc1cc(-c2nnn(CC(=O)N3CCCCC3)n2)ccc1OC	6	7.7	7	-10	3362	7	2
COCCCNC(=O)CSC1=Nc2ccccc2C2=NC(Cc3c[nH]c4ccccc34)C(=O)N12 (stereo unspecified)	-1	2.3	-8	-8	3429	2	-2
O=C(COc1ccc(Cl)cc1)NCCCNC(=O)c1cnccn1	x	x	-10	-30	3536	x	x
CCCCOc1ccc(/C=C/C(=O)NCCc2nc3ccccc3[nH]2)cc1	-14	10	-14	-11	21858*	2	9
CN(CCC(=O)Nc1ccc2c(c1)OCO2)Cc1ccccc1	5	1.7	-2	-34	13132	10	-8
CN(CC(=O)Nc1ccc(Cl)cc1)C(=O)Cc1c(F)cccc1Cl	0	1.4	-7	-24	6157	14	-1
CCOc1ccccc1NC(=O)NC1CCN(CC(=O)Nc2ccc3c(c2)OCCO3)CC1	3	1.9	3	-21	u	-1	2
Cc1cc(F)ccc1NS(=O)(=O)c1cccc2nsnc12	-1	4.8	0	-3	3666	7	7
CCCCCCOc1ccc(N2C(=O)CC(N3CCN(CCN=CC4C(=O)CC(C)(C)CC4=O)CC3)C2=O)cc1 (stereo unspecified)	1	2.2	-4	-1	4417	7	8
CC(c1nccs1)N(C)C(=O)CCc1nnc(CCc2ccccc2)o1 (stereo unspecified)	3	3.3	-1	-15	4747	4	1
Cc1nnc(SCCN2CCOCC2)c2nn(-c3ccccc3F)c(C)c12	7	6.2	8	-8	3255	4	1
NC(=O)C1CC(=O)N(c2ccc(OCC(=O)NCc3ccccc3)cc2)C1 (stereo unspecified)	5	2.2	-6	0	6366	0	7
Cc1ccc(S(=O)(=O)N(CC(=O)N/N=C/c2ccco2)Cc2ccccc2)cc1	x	x	-7	-10	22458*	x	x
C[C@]1(CO)CCC[C@@]2(C)C1CC[C@@H](CO)[C@@H]2CCc1ccoc1 (stereo partly specified)	-5	10	-4	-18	3377	-9	1
O=C(c1cccnc1)N1CCC(Oc2ccc(C(=O)N3CCCCO3)cc2)CC1	4	1.5	-24	-17	2712	-4	7
c1ccc2[nH]c(NC3=NCCC3)nc2c1	0	2.5	-12	-27	4767	x	x
CCOC(=O)NC(=O)CSc1ccc(C)cc1C	19	4.9	-5	-21	3552	-5	-5
Cc1nc(SCc2nc3ccc([N+](=O)[O-])cc3[nH]2)c2oc3ccccc3c2n1	23	-1.8	x	0	3133	4	1
O=C(NCCC1CCCCN1S(=O)(=O)c1ccc(F)cc1)C(=O)NCCN1CCOCC1 (stereo unspecified)	3	4.5	-4	-1	4262	4	2
CC(C)Oc1ccccc1NC(=O)CSc1nc2ccccc2c(=O)n1C	-11	0.1	1	3	3848	1	3
COc1ccc(C(C)=NNC(=O)c2ccccc2OCc2ccccc2)c(OC)c1	0	7.0	x	x	x	-1	2
O=C(O)CCC(=NNc1ccc(Cl)cc1)c1cccs1	7	0.7	x	x	x	2	-1
CNC(=O)NC(=S)NC(=O)c1ccccc1Cl	-1	4.2	5	-7	4935	6	12
COc1ccc2oc3c(c2c1)NC(=O)CN=C3c1ccccc1	-10	10	3	-46	4034	1	0
NC(N)=N/N=C/c1ccc(OCc2ccccc2)cc1	x	x	0	-43	11559	x	x

Exported bar-delimited: part of the list above
mol | Sa ugtP lethal | Sa RN4220 lethal | BJeLR lethal | PrP UTR inh | Bead autofluor | Mtb hypoxia rep | Mtb hypoxia rep growth
O=C(O)CCC(=NNc1ccc(Cl)cc1)c1cccs1 | 7 | 0.7 | x | x | x | 2 | -1
CNC(=O)NC(=S)NC(=O)c1ccccc1Cl | -1 | 4.2 | 5 | -7 | 4935 | 6 | 12
COc1ccc2oc3c(c2c1)NC(=O)CN=C3c1ccccc1 | -10 | 10 | 3 | -46 | 4034 | 1 | 0
NC(N)=N/N=C/c1ccc(OCc2ccccc2)cc1 | x | x | 0 | -43 | 11559 | x | x

Going on with the list:
SMILES	Sa ugtP lethal	Sa RN4220 lethal	BJeLR lethal	PrP UTR inh	Bead autofluor	Mtb hypoxia rep	Mtb hypoxia rep growth
Cc1ccc(C2c3c(oc4ccccc4c3=O)C(=O)N2CCCN2CCOCC2)o1 (stereo unspecified)	2	1.9	8	-19	9153	0	-1
CCN1/C(=C2\C(=O)N(C)C(=S)N2c2ccccc2)C=Cc2ccccc21	7	2.1	9	-5	3499	x	x
CCOc1ccc(C(=O)Nc2ccccc2CC)cc1[N+](=O)[O-]	1	0.5	-10	-30	2078	12	13
Cc1ccc(/C=C2/Sc3ccc(C(=O)N4CCN(c5ccccn5)CC4)cc3NC2=O)cc1	x	x	-5	-22	5664	x	x
CC(=O)c1c(C)n([O-])c2ccccc2[n+]1=O	45	30	-4	-24	23107*	x	x
COc1ccc(C(=O)N2CCC2)cc1S(=O)(=O)NCc1ccc(Cl)cc1	3	1.1	x	4	4721	-4	-4
CCSCc1nnc(SCC(=O)Nc2nc3ccccc3s2)n1C	1	-13	-2	-29	2530	x	x
CCOC(=O)N1CCN(C(=O)c2ccccc2N(C)S(C)(=O)=O)CC1	7	1.2	6	-7	16798*	5	1
c1csc(-c2nnc(Cc3cccc4ccccc34)o2)c1	-11	7.2	6	-18	23714*	x	x
CC1NC(=O)NC1CCCCCC(=O)Nc1ccc(F)c(Cl)c1 (stereo unspecified)	-1	0.0	-1	-11	1804	-6	-9
CCN(CC)CCCN1C(=O)C(O)=C(C(=O)c2sc(C)nc2C)C1c1ccco1 (stereo unspecified)	0	0.4	-6	19	19534*	1	6
CC(C)Cc1cc(CN2CCC(CO)(Cc3ccccc3)CC2)[nH]n1	4	3.3	-5	-26	5604	-7	11
Clc1ccc(/C=N/Nc2nn[nH]n2)cc1	x	x	-6	-10	6668	x	x
Cc1ccccc1Cn1ccc(=NCc2ccccc2)cc1	6	2.3	12	x	x	16	23
COC(=O)c1sccc1NC(=O)Nc1ccc(OC)c(OC)c1	1	-1.3	3	-2	5805	-20	-7
Cc1ccc2nc(/C(C#N)=C\c3ccc(Oc4ccc([N+](=O)[O-])cn4)cc3)[nH]c2c1	-20	4.4	x	-15	2411	-1	9
COC(=O)C1(C)Nc2ccccc2C(=O)N1c1ccccc1C (stereo unspecified)	2	1.1	13	-14	4519	x	x
Cc1ccc(NC(=O)c2ccc(Br)o2)cc1S(=O)(=O)N(C)C	5	7.4	-18	-39	2270	0	-4
Cc1ccccc1OCc1nnc(SCC(=O)Nc2ccc3nc(SCC(=O)NC(C)(C)C)sc3c2)n1C	x	x	15	8	3050	x	x
CCOc1ccc(NC(=O)CN(C)c2ccc(S(=O)(=O)N3CCOCC3)cn2)cc1OCC	-14	-13	-6	0	2577	-2	4
Cc1ccc(S(=O)(=O)Nc2cccc(-n3cnnn3)c2)cc1C	1	2.6	1	-16	5748	2	-1
CCN1CCCC1CNc1ncnc2c1[nH]c1ccc(F)cc12 (stereo unspecified)	10	1.0	13	-42	4542	10	3
Cc1cc(=S)cc(C)n1CCO	-2	2.0	-13	-56	2719	-6	-8
COc1cc(CNc2ccc3[nH]c(=O)[nH]c3c2)cc(Br)c1OCc1ccc(F)cc1	9	0.7	3	-10	3095	9	-1
CCNc1c(NS(=O)(=O)c2ccc(Br)s2)c(=O)oc2ccccc12	-2	8.9	-2	-29	3755	5	7
